Bioassay records deposited in PubChem by National Center for Advancing Translational Sciences (NCATS).
2A StopGo: FMDV 2A StopGo reporter, luciferase signal; human cells with a luciferase reporter of 2A StopGo recoding; control for the full effect not named in the record; Potency, µM (highest dose often 57.9 µM), without a hit: at the highest dose signal change, negative = less light; 410,000 tested, 1.2% active; AID 1159524; active = well fitted falling curve with a large enough effect; inconclusive = small, poorly fitted or top-dose-only effect; inactive = no such curve, though single readings can be large or run the other way; tested in HEK293T cells; also: % is scaled to controls: 0 for no effect and ±100 for the full control effect; nearly all actives have a fitted effect of over 45% in size; luciferase light after 4 h
LASV entry inh: inhibitors of Lassa virus binding or cell entry | 300,000 tested, 1.2% active | Potency, µM (top dose mostly 37.9 µM), for inactives: at the highest dose activity change, negative = inhibition, usual class: inhibitors | AID 540256 | Lassa virus pseudotype entry inhibition, cell reporter; control for the full effect not named in the record; active means well fitted inhibition curve with a large enough effect; inconclusive means small, poorly fitted or top-dose-only effect, or effect the other way; inactive means flat fitted curve, though single readings scatter; tested in HEK293 cells; also: % is scaled to controls: 0 for no effect and ±100 for the full control effect; nearly all actives have a fitted effect of over 50% in size; luciferase read-out
Cruzain inh noDet: blocks cruzain activity in detergent-free assay; purified cruzain, Z-FR-AMC fluorescence, no detergent; Potency, µM, without a hit: max response, negative = inhibition, most hits filed as inhibitors; 200,000 tested, 2.3% active; P25779;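 also: plate controls were enzyme without inhibitor for no effect and buffer without enzyme for full effect; nearly all actives have a fitted effect of over 40% in size; top concentration of the series not given in the record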
Target sequence (P25779 123-467 limits assumed): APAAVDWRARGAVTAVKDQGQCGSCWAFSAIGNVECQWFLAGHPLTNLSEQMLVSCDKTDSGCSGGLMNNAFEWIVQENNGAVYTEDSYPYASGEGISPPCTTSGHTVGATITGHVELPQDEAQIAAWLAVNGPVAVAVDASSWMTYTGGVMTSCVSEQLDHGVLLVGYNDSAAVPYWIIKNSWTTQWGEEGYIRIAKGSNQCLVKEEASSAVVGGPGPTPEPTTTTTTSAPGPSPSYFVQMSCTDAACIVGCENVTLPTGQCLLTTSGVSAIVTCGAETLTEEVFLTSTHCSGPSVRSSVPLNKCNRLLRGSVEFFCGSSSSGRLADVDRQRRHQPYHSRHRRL
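Purified cruzain at 1.5 nM, pre-incubated 15 min with compound at room temperature in 100 mM sodium acetate pH 5.5, 5 mM DTT, 0.00005% Triton X-100. Reaction started with 2 uM Z-FR-AMC; AMC fluorescence increase over 60 s gives rate.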
NS1 inh: inhibitors of influenza NS1 protein function | 270,000 tested, 0.4% active | Potency, µM (top dose mostly 46.1 µM), for the others: top-dose activity, positive = more growth | S. cerevisiae slowed by influenza A NS1, growth recovery by OD600; active means well fitted rising curve with a large enough effect; inconclusive means small, poorly fitted or top-dose-only effect; inactive means no such curve, though single readings can be large or run the other way; also: nearly all actives have a fitted effect of over 50% in size
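In this qHTS, NS1 from influenza A is expressed in budding yeast, where it slows growth. Cells are switched from glucose to 2% galactose medium (pH 6.0, -URA), treated with compound, and growth recovery is read at OD600.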
Marburg entry inh: inhibitors of Marburg virus binding or cell entry; AID 540276; 300,000 tested, 1.8% active; Marburg virus pseudotyped entry inhibition, cell reporter; control for the full effect not named in the record; about a third of the inactives were read at about 46 µM; Potency, µM (top dose mostly 37.8 µM), without a hit: at the top dose activity change, negative = inhibition, hits mostly inhibitors; active = well fitted inhibition curve with a large enough effect; inconclusive = small, poorly fitted or top-dose-only effect, or effect the other way; inactive = flat fitted curve, though single readings scatter; tested in HEK293 cells; about a fifth of its hits are not listed in these tables; also: % is scaled to controls: 0 for no effect and ±100 for the full control effect; luciferase read-out
SARS PLpro yeast: inhibitors of SARS-CoV papain-like protease in yeast; 330,000 tested, 0.19% active; Potency, µM (titrated, usually from 32.9 µM), for the others: at the highest dose activity, positive = growth rescue; S. cerevisiae expressing SARS-CoV PLpro, growth rescue; control for the full effect not named in the record; AID 485353; active means well fitted rising curve with a large enough effect; inconclusive means small, poorly fitted or top-dose-only effect; inactive means no such curve, though single readings can be large or run the other way; also: 0% is about no effect; nearly all actives have a fitted effect of over 55% in size; growth read by luminescence after 48 h
RE007 growth inh: less growth of the S. pombe RE007 Vpr strain. Potency, µM (doses to about 92.2 µM), without a hit: at the top dose activity change, negative = less growth. AID 651644. 360,000 tested, 0.21% active. S. pombe RE007 Vpr strain, BacTiter-Glo ATP luminescence, 24 h; control for the full effect not named in the record; active = well fitted falling curve with a large enough effect; inconclusive = small, poorly fitted or top-dose-only effect; inactive = no such curve, though single readings can be large or run the other way;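 also: % is scaled to controls: 0 for no effect and ±100 for the full control effect; nearly all actives have a fitted effect of over 50% in size; the assay follows cell death caused by Vpr and the record does not say whether a fall means rescue or toxicity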
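Fission yeast strain RE007, carrying one chromosomally integrated HIV-1 vpr copy, was seeded at OD 0.01 in PMG+AL medium with 23 nL pinned compound. After 24 h at 30 °C and 99% humidity, viability was read by BacTiter-Glo luminescence.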
Cruzain inh Det: cruzain (T. cruzi) inhibition with detergent; Potency, µM, inactives show max response, negative = inhibition, hits mostly inhibitors; purified cruzain, Z-FR-AMC fluorescence, 0.01% Triton; P25779; 200,000 tested, 0.43% active;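 also: plate controls were neutral wells for no effect and buffer without enzyme for full effect; nearly all actives have a fitted effect of over 40% in size; top concentration of the series not given in the record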
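In this qHTS format, compounds are incubated with 1.5 nM cruzain for 15 min at room temperature before 2 uM Z-FR-AMC is added. Release of AMC is followed at 360/450 nm, and progress is taken as the 60 s fluorescence difference.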
* marks the source's active call; other numbers are inactive results; ? = inconclusive; / = no result given; & = joins results of further samples; [ ] = remark or other dose. Unless noted, calls follow the shape of the dose curve; as a rule, active = well fitted curve in the direction sought with a large enough effect; inconclusive = small, poorly fitted or top-dose-only effect, or another doubt; inactive = no such curve, though single readings can be large; an effect the other way counts as inactive or inconclusive. Potency is read from the fitted curve at half-maximal effect.

SMILES | 2A StopGo | LASV entry inh | Cruzain inh noDet | NS1 inh | Marburg entry inh | SARS PLpro yeast | RE007 growth inh | Cruzain inh Det
C=CCOc1ccc(C=CC(=O)c2c(O)c(OC)c(OC)c(OC)c2OC)cc1 | 0.0% | ? | / | / | -28.9% | / | 4.8% | /
O=S(=O)(Nc1ccc2ccccc2c1)N1CCCCC1 | 48.7%[activator] | -23.8%[46.1 µM] | / | / | ? | / | 5.7% | /
CCN1CCN(c2ncc3c(n2)CCN(Cc2cccc(F)c2F)C3)CC1 | -13.8% | -22.7%[46.1 µM] | -7.1% | / | / | / | / | -0.7%
Cc1ccc(NC(=O)c2nc[nH]c2C(=O)Nc2ccc(C)cc2)cc1 | 0.0% | 7.9% | 7.94µM* | 5.2% | -3.4% | -14.8% | 1.0% | 3.3%
COc1ccc(CN(C)CC(=O)Nc2ccccc2C(=O)NC2CC2)cc1OC | -16.8% | 23.9% | / | / | 34.5% | -7.1% | 12.6% | /
O=C(NC1CCCCC1)Oc1cc2oc(=O)sc2cc1Br | ? | 13.6% | / | -113.8% | 26.8% | -19.2% | ? | /
NC(=O)c1ccsc1NC(=O)C1CCCCC1 | 5.2% | / | 6.5% | -119.2% | 0.1% | -28.4% | -13.2% | 2.2%
C=CC(C)(O)CCCC(C)CCCC(C)CCCC(C)C (centres undefined) | -22.8% | / | 3.4%&1.5% | / | / | -24.2% | 1.0% | 0.3%&-3.1%
CCOc1ccc(NC(=O)CN(C)C(=O)c2ccncc2)cc1OCC | 6.4% | -10.0%[46.1 µM] | / | 3.7% | 18.3%[46.1 µM] | -1.8% | 6.4% | /
Cc1ccc(Sc2nc(C)c([N+](=O)[O-])c(C)c2C#N)cc1 | -26.5% | -1.3% | / | 2.0% | -5.0%[46.1 µM] | -1.9% | -28.3% | /
CCCCn1c(N)c(N(CC(C)C)C(=O)CSc2ccc([N+](=O)[O-])cc2)c(=O)[nH]c1=O | -6.5% | ? | / | / | -2.1% | 2.1% | 20.7% | /
O=C(CSc1ncnc2ccccc12)NCC(=O)c1ccccc1 | -8.9% | 14.5% | / | / | -28.5%[46.1 µM] | -14.2% | 1.9% | /
CCC(=O)N1CCc2cc(S(=O)(=O)NC(CC(C)C)C(=O)Nc3cc(C)ccc3OC)ccc21 (centres undefined) | 14.3% | -12.0%[46.1 µM] | -5.3% | / | -5.9%[46.1 µM] | / | / | -0.4%
Cc1ccc(NC(=O)c2cccc(NC(=O)CC3SC(N4CCCCC4)=NC3=O)c2)nc1 (centres undefined) | 43.0%[activator] | 3.2%[46.1 µM] | / | / | -2.2% | 1.4% | -3.6% | /
CCOC(=O)c1ccc(NC(=O)c2cn(CCC#N)nc2-c2ccc3c(c2)OCCO3)cc1 | -9.1% | -8.4% | ? | -22.9% | -20.6% | 4.3% | -3.6% | -22.0%
COc1ccc(CCNC(=O)CSc2cc(=O)n(C)c3ccccc23)cc1OC | -24.5% | -11.5%[46.1 µM] | -5.3% | / | -7.8%[46.1 µM] | / | / | -2.2%
Cc1ccc(CS(=O)(=O)CCC(=O)NCCCN2CCCC2)cc1 | / | 0.3% | 3.2% | -5.4% | 19.1% | 0.0% | -7.6% | 4.3%
Cc1ccc2occ(/C=N/NC(=O)[C@@H](N)Cc3ccccc3)c(=O)c2c1 | -11.1% | 1.2% | / | -5.4% | 6.0%[46.1 µM] | 2.7% | -9.8% | /
O=C(Cn1nc(C(F)(F)F)c2c1CCCC2)NC1CCCC1 | -7.9% | -13.9% | 5.2% | 2.2% | -4.0% | 4.6% | -2.3% | 2.4%
COC(=O)c1cccc(NC(=O)CN2CCC(NC(=O)c3cc(OC)c(OC)c(OC)c3)CC2)c1 | ? | -0.5% | 10.4% | -22.5% | -23.1% | -2.5% | -0.1% | 2.2%
CCc1ccc(-n2nc3cc(C)c(NC(=O)c4cc(Cl)ccc4OC)cc3n2)cc1 | -6.3% | 1.4%[46.1 µM] | -3.9% | / | ? | / | / | 0.3%
CCCCCCn1c(CN2CCN(CCO)CC2)nc2c1c(=O)n(C)c(=O)n2C | 0.0% | / | -6.1% | -5.8% | / | -5.5% | -15.3% | 1.2%
CCCSc1ncc(Cl)c(C(=O)N(Cc2cccc(Cl)c2)C2CCS(=O)(=O)C2)n1 (centres undefined) | 20.2% | -15.3%[46.1 µM] | 4.0% | / | -8.1%[46.1 µM] | / | / | -5.4%
Cc1ccccc1NC(=S)N1CCCCCC1 | 1.1% | 29.3%[46.1 µM] | / | -2.3% | ? | 1.1% | 10.3% | /
O=C(NCc1cccnc1)c1ccc(Cl)cc1[N+](=O)[O-] | -26.3% | ? | -5.8% | 4.6% | -4.7% | 2.6% | 6.1% | 0.9%
COc1ccc(/C(C)=N/N=C(N)N)c(O)c1 | -15.8% | 28.2%[46.1 µM] | / | 0.4% | ? | -0.9% | -6.8% | /
CCN(c1ccccc1)S(=O)(=O)c1cccc(C(=O)NCc2ccncc2)c1 | -7.1% | -21.5% | / | / | -21.8%[46.1 µM] | 1.8% | -7.2% | /
COc1cccc(NC(=O)c2ccc(S(=O)(=O)NCc3cccnc3)cc2)c1 | 0.0% | ? | / | 1.2% | -31.3%[46.1 µM] | -1.4% | -9.3% | /
COc1ccc(CC(C)Nc2cccc(SC)c2)cc1 (centres undefined) | -0.1% | / | / | 5.1% | / | -10.4% | -4.6% | /
O=C(COc1coc(CN2CCN(c3ccccc3)CC2)cc1=O)NC1CCCCC1 | -25.6% | -34.7% | / | / | -2.3% | 7.8% | -8.0% | /
Cc1cc(C)c2c(c1)cc(C)c1nnc(SCC(=O)Nc3ccc(S(=O)(=O)N4CCCCC4)cc3)n12 | -17.0% | -12.6% | ? | 8.5% | ? | -6.7% | 6.9% | -2.3%
CC1CC2(C)C(CCC3C2CCC2(C)C(OP(=O)(N4CC4)N4CC4)CCC32)CC1=O (centres undefined) | ? | -13.6% | / | / | ? | / | -8.5% | /
O=C(Nc1cccc(Cl)c1)Nc1nccs1 | 5.3% | 26.0% | 1.5% | -86.6%&-5.4% | 35.1%&35.1% | -6.1%&-1.5% | 16.7%[3.69 µM] | -3.8%
CCOc1ccc(-c2cc3nc(C4CCN(C(=O)OC(C)(C)C)CC4)c(C(=O)Nc4ccc(C(=O)OC)cc4)cn3n2)cc1 | -7.4% | 2.1%[46.1 µM] | -3.5% | / | ? | / | / | 1.2%
Brc1cccc(CN2CCCCCC2)c1 | -21.1% | / | / | 1.1% | / | -3.7% | -0.5% | /
C=CCN1CC(c2nc3ccccc3n2Cc2ccccc2)CC1=O (centres undefined) | 10.0% | -4.9% | 1.6% | -1.4% | ? | -0.8% | 16.3% | -1.9%
CCC(C)c1ccccc1N1CC(C(=O)Nc2ccc(S(=O)(=O)N3CCOCC3)cc2)CC1=O (centres undefined) | -9.9% | 3.9%[46.1 µM] | / | / | -7.7% | 1.7% | -12.4% | /
O=C(NCc1ccc(F)cc1)C1CCN(S(=O)(=O)c2ccc3c(c2)OCCCO3)CC1 | -26.0% | 6.1% | 2.4% | -20.3% | ? | -7.7% | 7.4% | -2.2%
COC(=O)c1sccc1NC(=O)CC1C(=O)NCCN1C(=O)c1c(F)cccc1Cl (centres undefined) | -10.9% | ? | / | -0.3% | -28.9% | 0.8% | 0.9% | /
CC(C)c1nccn1S(=O)(=O)c1cccc([N+](=O)[O-])c1 | -6.7% | 20.2% | -5.6% | -1.6% | 9.4% | -10.2% | -6.9% | -0.5%
CCOc1cc(/C=N/NC(=O)CSc2nncn2C)ccc1OC(=O)c1ccc(Cl)cc1 | -24.3% | 0.9% | ? | 12.2% | 15.6% | 3.1% | 26.3% | -9.2%
CCOc1ccc(/C=C/c2nc(C#N)c(N3CCCCC3)o2)cc1 | -14.9% | 1.3%[46.1 µM] | -2.4% | / | 12.3%[46.1 µM] | / | / | 1.2%
O=C(Cn1cccc1C(=O)c1ccccc1)NCc1cccs1 | 17.2% | 13.1% | -5.8% | 0.5% | 6.3% | 3.2% | 3.4% | -2.5%
S=C(NCc1cccnc1)c1ccccc1 | 11.2% | 1.4%[46.1 µM] | / | 0.8% | 16.9%[46.1 µM] | -2.3% | 0.7% | /
CCN(CC)S(=O)(=O)c1ccc2c(c1)N(CC(=O)Nc1ccc(C)cc1C)C(=O)C1CCCN21 (centres undefined) | 0.3% | 22.9%[46.1 µM] | ? | / | / | / | / | -4.4%
CCOC(=O)c1nnn(-c2nonc2N)c1CN(CC)c1ccccc1 | 10.0% | 11.6% | -1.7% | -4.1% | ? | -11.8% | 3.7% | -5.4%
CCOC(=O)C1(CC)NC(c2ccco2)C2C(=O)N(CC)C(=O)C21 (centres undefined) | 15.6% | -4.4% | -21.6% | 2.6% | 5.0%[46.1 µM] | -0.7% | 1.8% | 1.5%
COc1ccc(CC(=O)OCC(=O)Nc2ccc3[nH]c(=O)[nH]c3c2)cc1 | 5.3% | ? | / | / | 22.1% | / | 14.0% | /
CN(C)CCCN1C(=O)C(=O)/C(=C(/O)c2ccncc2)C1c1cccc(Br)c1 (centres undefined) | 7.2% | -12.5% | -10.4% | -5.8% | -10.8% | ? | 47.4% | -7.5%
CCc1ccccc1NC(=O)c1ccc2nc(N3CCOCC3)sc2c1 | ? | / | / | -11.8% | / | 5.7% | -8.3% | /

(list continues)
SMILES | 2A StopGo | LASV entry inh | Cruzain inh noDet | NS1 inh | Marburg entry inh | SARS PLpro yeast | RE007 growth inh | Cruzain inh Det
CCc1cc(C(=O)O)c(NC(=O)/C=C/c2ccc(OC)c(OC)c2)s1 | 9.0% | / | / | -4.3% | / | 0.6% | -5.1% | /
COc1ccc(N2CCOCC2)c(NC(=O)c2ccc(Br)o2)c1 | ? | -3.7% | / | -35.3% | ? | -1.7% | 5.0% | /
CCOc1ccc(CCNC(=O)C2CC(=O)N(CCc3ccc(OC)c(OC)c3)C2)cc1OCC (centres undefined) | -15.8%&-5.7% | 27.4% | -4.2% | / | -3.7%&-3.7% | 1.3% | 2.7% | 1.2%
Cc1ccc(S(=O)(=O)NCC(=O)NNC(=O)c2ccc(Br)cc2)cc1C | -1.2% | ? | / | / | -1.4%[46.1 µM] | 4.9% | 9.5% | /
